CapD inh = inhibitors of Bacillus anthracis CapD enzyme; purified CapD enzyme, fluorescence intensity read-out; active compounds read low; some hits fall short of the stated cut; z-score (no concentration beside the values); 140,000 compounds, 0.23% hits; AID 492967;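 active = z-score under -4 in either of two replicates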;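 note: stock transfer was 100 nL into about 40 µL; score is relative to mean and spread of the plate; one replicate is shown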
AID504770 = growth inhibitors of E. coli YBA685 in a screen for V. cholerae RctB (chromosome II replication) inhibitors; E. coli YBA685 rctB-dependent plasmid, OD600 growth, 3 h; active compounds read low; z-score (no concentration beside the values); 130,000 compounds, 0.27% hits;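 active = z-score under -2 on both plates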;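 note: wells of about 30 µL received 100 nL stock; score is relative to mean and SD of the test wells; the first replicate is given; strong numbers were not always called active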
Active calls of the source: *; . = not tested or not shown.

SMILES	CapD inh	AID504770
CC1CN(C(=O)C2=NN(c3ccccc3)C(=O)CC2)CC(C)O1 (stereo not given)	.	0.65
Cc1c(C(=O)Cn2cnc3ccccc32)c2ccccc2n1C	.	0.1
COc1ccc(S(=O)(=O)Nc2ccccc2C(=O)N2CCN(c3nc(OC)cc(OC)n3)CC2)cc1	-0.3	.
CCCC(=O)Oc1ccc2ccc(=O)oc2c1	.	-0.95
CC(C)Sc1nnc(NC(=O)NC(C)(C)C)s1	.	-0.9
CCOC(=O)CSc1nc2ccccc2n1Cc1ccccc1	-0.33	0.15
COc1cc(CNCCc2ccccc2)cc(OC)c1	-0.005	1.4
Cc1c(Br)cc2nc(-c3ccc(F)cc3)c(-c3ccc(F)cc3)nc2c1C	-0.52	.
CC(=O)N1CCN(c2ccc(Oc3nc(-c4ccccc4)nc4ccccc34)cc2)CC1	.	1.1
COc1ncnc2sc3c(c12)CCC3	-0.4	0.15
Cc1ccc(S(=O)(=O)CCC(=O)N(Cc2nnc(-c3ccc(Cl)cc3)o2)C2CC2)cc1	.	-0.5
Cc1[nH]c2ccccc2c1SCC(=O)Nc1ccccc1	0.1	-0.65
O=C(NCc1ccco1)C12CC3CC(CC(C3)C1)C2	.	-0.85
COc1ccc(N=C2SC(C(=O)Nc3ccccc3)CC(=O)N2C)cc1 (stereo not given)	.	-0.75
COCCCNC(=O)c1cc(S(=O)(=O)N2CC(C)CC(C)C2)ccc1Sc1ccc(Br)cc1 (stereo not given)	-0.73	.
Cn1c(=O)[nH]c(=O)c2c1nc1n2CCCN1c1ccccc1	.	-0.65
CCOC(=O)c1c(NC(=O)COc2ccc(Cl)cc2)sc(C(=O)Nc2ccccc2OC)c1C	0.57	.
COC(=O)c1cc(C2CC2)nc2c1c(C)nn2-c1ccccc1	-1.1	1.8
C=CCOC(=O)C1=C(C)NC(SCC(=O)Nc2c(C)cc(C)cc2C)=C(C#N)C1c1cccs1 (stereo not given)	3.6	.
O=S(=O)(/C=C/c1ccccc1)N1CCN(CCc2ccncc2)CC1	.	0.15
CCC(C)(C)NS(=O)(=O)c1ccc(Cl)cc1F	.	0.2
Cc1cc(C)n(-c2ccc(C(=O)OCc3nc4ccccc4c(=O)n3CC#N)cc2)n1	.	-0.05
Cc1ccc(S(=O)(=O)NCCN2CCNC2=O)cc1	-0.57	-1.1
O=C1c2ccccc2C(=O)N1CC1c2ccccc2CCN1S(=O)(=O)c1cc(Cl)sc1Cl (stereo not given)	-1.3	.
Cc1cccc2sc(NC(=O)[C@@H]3CCCN3C(=O)c3cccs3)nc12	.	-0.1

Later entries:
SMILES	CapD inh	AID504770
Cc1occc1-c1nnc(SCc2nc3ccccc3s2)n1Cc1ccccc1	.	-0.6
CCn1c(SCC(=O)N2CCC(C)CC2)nc2c(c1=O)SCC2	-1.5	0.9
O=C(O)C1CCCN(C(=O)c2ccccc2)C1 (stereo not given)	0.49	-0.7
CCN1C(=O)c2cccc3c(Cl)cc(Cl)c1c23	-0.3	1.9
CCCN(Cc1nnc(-c2ccccc2Cl)o1)C(=O)Cc1coc2cc(C)c(C)cc12	.	0.15
CCC(C)NC(=O)c1cccc(-n2c(=S)[nH]c3cc(Cl)ccc3c2=O)c1 (stereo not given)	-0.19	.
Cc1ccc(C2N=NNC2=S)c(C)c1 (stereo not given)	0.08	.
CCOc1ccccc1C(=O)N[C@H](C(=O)Nc1nccs1)C(C)C	.	0.65
CC(C)Cn1c(SCc2cn3ccsc3n2)nc2sc3c(c2c1=O)CCCC3	.	-0.95
CCOC(=O)C1=C(C)N=c2s/c(=C3\C(=O)N(CC)c4ccccc43)c(=O)n2C1c1cccs1 (stereo not given)	-0.58	.
CCN(CC)c1cccc(OC(=O)Nc2ccc(Cl)cc2)c1	.	-0.6
Nc1nc(N2CCCC2)ncc1S(=O)(=O)c1ccc(C(F)(F)F)cn1	12	-0.05
CC(C)N(Cc1ccccc1)S(=O)(=O)c1ccc(CNC(=O)c2ccc(Cl)cc2)s1	0.51	0.3
COC(=O)Nc1ccc(S(=O)(=O)N2CCC(C(=O)NC3CCCCC3)CC2)cc1	0.045	.
Cc1ccccc1NCCC(=O)O	0.39	-0.55
CCOC(=O)C12C(=O)OC(C)(C)C1C2(CC)C(=O)c1ccc(C)cc1 (stereo not given)	-0.7	-0.5
O=C(c1ccco1)N1CCN(Cc2cccc(Br)c2)CC1	.	0
Cc1nnc(SC(C)C(=O)Nc2ccc3c(c2)OCCO3)s1 (stereo not given)	.	-0.7
CCCCN1Cc2c(nc3cc(C(C)(C)C)[nH]n3c2=O)C1=O	86	1.2
COc1ccc(Nc2cc(N3CCCCCC3)c3nonc3c2[N+](=O)[O-])cc1	0.35	.
CCCC(=O)Nc1ccc(Cl)c(NC(=O)c2ccc(Br)o2)c1	0.68	-0.25
O=C(O)c1ccc(-n2cccn2)cc1	.	2
Cc1cc(C)c2nc(C(F)(F)F)nc(N3CCN(c4ccccc4F)CC3)c2c1	-1.3	2.5
CCc1cc2c(=O)c(-c3cscn3)coc2cc1OC(C)=O	0.92	0.45
CCOc1ccc(CN(C)C(=O)[C@H](C)NC(=O)c2ccco2)cc1OC	.	0.6

Of the compounds above, these contain a cyano group.
SMILES	CapD inh	AID504770
C=CCOC(=O)C1=C(C)NC(SCC(=O)Nc2c(C)cc(C)cc2C)=C(C#N)C1c1cccs1 (stereo not given)	3.6	.
Cc1cc(C)n(-c2ccc(C(=O)OCc3nc4ccccc4c(=O)n3CC#N)cc2)n1	.	-0.05

Further records
SMILES	CapD inh	AID504770
COC(=O)c1ccc2c(=O)n(Nc3nc(C)cc(C)n3)c(=S)[nH]c2c1	-0.47	.
CC1CCCN(c2nc(-c3ccc([N+](=O)[O-])cc3)nc3ccccc23)C1 (stereo not given)	-0.045	.
C#C[C@]1(O)CCC2C3CCC4=C(CCC(=O)C4)C3CC[C@@]21C (stereo not given in full)	-0.79	-0.15
COc1cc(C2C(C#N)=C(N)Oc3n[nH]c(-c4ccc(Br)cc4)c32)cc(OC)c1O (stereo not given)	0.22	.
C=CCN(c1ccccc1)S(=O)(=O)c1ccc2[nH]cc(C(=O)NCC3CCCO3)c(=O)c2c1 (stereo not given)	3.2	-0.6
C1CCCCCC(NCCN2CCNCC2)CCCCC1	-0.29	-0.55
COCCN(C1CCN(C)CC1)S(=O)(=O)c1ccc(NC(=O)c2cccc(C(F)(F)F)c2)cc1	0.39	.
Cn1c(N)c(C(=O)NCc2ccccc2)sc1=S	-0.33	0.35
CCOC(=O)C1=C(NC(=S)NC(=O)c2ccccc2)c2ccccc2CC1(CC)CC	-0.24	.
COC(=O)CC1C(=O)NCCN1C(=O)NS(=O)(=O)c1ccc(C)cc1 (stereo not given)	96	0.35
CCOC(=O)c1ccc(NC(=O)C(CC)Sc2nc3ccccc3o2)cc1 (stereo not given)	-0.21	-0.55
Cc1ccn2cc(-c3cccc(NC(=O)c4cc5cc(Br)ccc5oc4=O)c3)nc2c1	-0.21	.
COc1ccc(N2C(=O)c3ccccc3C2(O)c2ccccc2)cc1OC (stereo not given)	-0.17	-0.6
O=C1CC(c2csc(-c3ccccc3)n2)C2(CCCCC2)O1 (stereo not given)	0.29	-0.65
Cc1nc(CSc2ccccc2)cc(=O)[nH]1	-0.2	0.6
COC(=O)/C(=C\Nc1ccccc1N)c1ncc(C(F)(F)F)cc1Cl	0.99	.
CCOC(=O)c1cnc(SC)nc1Sc1cccc(C(F)(F)F)c1	-0.07	.
Fc1ccc(/C=C/c2cccc3ccccc23)cc1	-1	0.15
CCOC(=O)/C=c1/nc2c([nH]c1=O)=NON2	-0.84	-0.7
O=[N+]([O-])c1ccc(Oc2c(Cl)cccc2Cl)nc1	-0.47	.
Clc1ccc(CN=C2Nc3ccccc3CS2)cc1	-0.34	-0.3
COc1cc(C(c2nnnn2C2CCCCC2)N2CCc3ccccc3C2)ccc1O (stereo not given)	.	0.45
CNS(=O)(=O)c1cccc(C(=O)OCC(=O)Nc2ncc(Cl)cc2Cl)c1	.	-0.9
C=CCn1c(SCC(=O)NCc2ccc3c(c2)OCO3)nc2sc3c(c2c1=O)CCCC3	-0.12	.
COc1ccc(-n2ncc3c(Nc4cc(Cl)ccc4OC)ncnc32)cc1	0.94	.

Carrying on:
SMILES	CapD inh	AID504770
CN1C(=O)/C(=C2\SC(=S)N(CC3CCCO3)C2=O)c2ccccc21 (stereo not given)	-0.2	0.2
CCN(CC)C(=O)/C=C/c1ccc(-c2cc(Cl)ccc2Cl)o1	1.7	0.3
FC(F)(F)c1cccc(CSC2=NCCCN2)c1	-0.75	-0.35
Cc1cccnc1NC1OC(=O)c2ccccc21 (stereo not given)	0.93	.
O=[N+]([O-])c1cc(O)c(O)c([N+](=O)[O-])c1	-0.16	.
O=C(c1cnn(-c2ccccc2)c1-n1cccc1)N1CCCCC1	0.39	-0.1
O=C(Oc1cccc(C(F)(F)F)c1)c1ccc2nonc2c1	0.21	2.2
COc1ccccc1C1=NOC(COC(=O)c2ccc3ccccc3n2)C1 (stereo not given)	0.7	0.4
CC1(C(N)=O)CCCC1	-0.48	-0.85
CCOC(=O)c1ccc(NC(=O)CCc2c(C)nc3cc(-c4ccccc4OC)nn3c2C)cc1	4.2	1.2
NC(=O)COC(=O)c1cc2ccccc2cc1O	-0.45	-0.9
Cc1cc2c(c(SCC(=O)N(C)c3ccccc3)n1)C(=O)OC2	0.28	0.15
c1ccc(Oc2ncnc3sc4c(c23)CCCC4)cc1	1.1	-1.2
Cn1c(=O)c(C(=O)c2cccc(S(=O)(=O)O)c2)c2c3c(c(Br)ccc31)C(=O)c1ccccc1-2	-0.76	.
O=[N+]([O-])c1cc(Br)c(Oc2cncc(Cl)c2)cc1Oc1cncc(Cl)c1	-0.89	.
CC(C)C(=O)OCC(=O)NN1C(=O)NC(C)(c2ccccc2)C1=O (stereo not given)	.	-0.35
Cc1cc(C(=O)CSc2n[nH]c(=O)n2C2CC2)c(C)n1-c1ccccc1	.	1.1
COC(=O)c1csc([N+](=O)[O-])c1	-0.92	.
O=C(O)COc1ccccc1F	-0.42	0.6
O=c1ccn(-c2cccc(C(F)(F)F)c2)nc1-c1ccn(-c2ccccc2)n1	-0.73	.
COc1ccc(OC)c(N(CC(=O)N2CCN(c3ccc(F)cc3)CC2)S(=O)(=O)c2ccc(OC)c(OC)c2)c1	0.11	1.2
O=C(NCc1ccccc1)C1CCN(C(=O)NCc2ccccc2)CC1	.	0.05
O=C(/C=C/c1ccco1)C1CC1	-3.1	0.4
O=C(NCc1nnc(SCC(=O)N2CCOCC2)o1)c1ccccc1	.	0.45
CCc1ccc(C(=O)/C=C2\Sc3ccccc3NC2=O)cc1	24	-0.1

The final 2 compounds of the part above lead into the next:
SMILES	CapD inh	AID504770
O=C(NCc1nnc(SCC(=O)N2CCOCC2)o1)c1ccccc1	.	0.45
CCc1ccc(C(=O)/C=C2\Sc3ccccc3NC2=O)cc1	24	-0.1
Cc1cccc2cc(CN(Cc3ccccc3)C(=O)c3ccco3)c(=O)[nH]c12	4.7	-1.3
NC(=S)Nc1nc2ccccc2[nH]c1=O	-0.045	-0.4
COc1cc(OC)nc(SC)n1	-0.08	0.35
CCc1nc2c([nH]1)c(=O)n(C)c(=O)n2C	0.62	-0.55
CC1CCC2(NC1)O[C@H]1C[C@H]3[C@@H]4CC=C5C[C@@H](O)CC[C@]5(C)[C@H]4CC[C@]3(C)[C@H]1[C@@H]2C (stereo not given in full)	0.15	.
Cc1nn(-c2ccccc2)c2[nH]c(=O)c(C#N)c(-c3ccccc3)c12	3.8	0.25
CCc1ccc(S(=O)(=O)Nc2cc3c4c(oc3c3ccccc23)CC(C)(C)CC4=O)cc1	-0.24	.
O=C1NC(=S)S/C1=C\c1c(NCCO)nc2ccccn2c1=O	-0.06	4.5
Fc1ccc(Cn2ccnc2-c2ccc(C(F)(F)F)cc2)cc1	10	0.75
CN(C)c1ccnc2sc3c(=O)n(-c4ccccc4)cnc3c12	5.2	-0.95
Cc1cccc(NS(=O)(=O)C2CCS(=O)(=O)C2)c1 (stereo not given)	0.16	0.45
CCOc1ccc(NC(=O)c2cccnc2)cc1	0.17	0.55
O=c1oc2cc(Cl)c(O)c(Cl)c2s1	-2.5	-0.8
CC(C)(C)c1nccc(-c2nn(-c3ccc(F)cc3)ccc2=O)n1	9.5	-1.2
COc1ccc2c(c1)n([O-])c1c([n+]2=O)CCC1	-0.53	0.15
CC1CCCCN1S(=O)(=O)c1ccc(CN2C(=O)c3cccnc3C2=O)s1 (stereo not given)	0.14	-0.45
CCOC(=O)c1cc(-c2ccc(N3CCOCC3)cc2)nn1-c1ccccc1	.	1.3
CCOC(=O)c1sc(N)cc1C	-0.02	0.4
O=S(=O)(NC1CCN(Cc2ccccc2)CC1)c1cc(Br)c(Cl)s1	0.21	.
CCOC(Cn1c(SCc2c(F)cccc2Cl)nc2ccccc2c1=O)OCC	-0.45	-0.75
O=C(CO/N=C/c1ccccc1OC(F)F)N1CCN(c2ccccc2)CC1	.	1.5

Of the compounds above, these contain a CF3 group.
SMILES	CapD inh	AID504770
Nc1nc(N2CCCC2)ncc1S(=O)(=O)c1ccc(C(F)(F)F)cn1	12	-0.05
Cc1cc(C)c2nc(C(F)(F)F)nc(N3CCN(c4ccccc4F)CC3)c2c1	-1.3	2.5
COCCN(C1CCN(C)CC1)S(=O)(=O)c1ccc(NC(=O)c2cccc(C(F)(F)F)c2)cc1	0.39	.
COC(=O)/C(=C\Nc1ccccc1N)c1ncc(C(F)(F)F)cc1Cl	0.99	.
CCOC(=O)c1cnc(SC)nc1Sc1cccc(C(F)(F)F)c1	-0.07	.
FC(F)(F)c1cccc(CSC2=NCCCN2)c1	-0.75	-0.35
O=C(Oc1cccc(C(F)(F)F)c1)c1ccc2nonc2c1	0.21	2.2
O=c1ccn(-c2cccc(C(F)(F)F)c2)nc1-c1ccn(-c2ccccc2)n1	-0.73	.
Fc1ccc(Cn2ccnc2-c2ccc(C(F)(F)F)cc2)cc1	10	0.75

Compound activity as filed in PubChem.
